# Screens as filed in PubChem.
# ALR H2O2 inh – human ALR oxidase inhibition via reduced H2O2. P55789. purified ALR, DTT oxidation, H2O2 HRP-luminol luminescence. inhibition, % (test concentration not listed). hit rate 3.8% among 290,000. AID 485317;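 active = mean and each replicate at 75% or more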;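 note: stock transfer was 7.5 nL into about 7.5 µL; 0% = neutral wells and 100% = wells with inactivated enzyme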
# Target sequence (P55789 whole entry, looked up): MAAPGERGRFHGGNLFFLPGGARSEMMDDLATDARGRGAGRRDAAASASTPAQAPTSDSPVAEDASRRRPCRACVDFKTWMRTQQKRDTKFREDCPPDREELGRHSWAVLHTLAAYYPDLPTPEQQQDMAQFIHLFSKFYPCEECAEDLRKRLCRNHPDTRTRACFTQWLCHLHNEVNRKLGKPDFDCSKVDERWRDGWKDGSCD
# UCH37 inh – human UCH37 deubiquitinating enzyme inhibition. purified proteasome/UCH37, Ub-AMC cleavage fluorescence. inhibition, % (concentration not given with the values). hit rate 0.33% among 330,000. AID 588478;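 active = mean of two replicates above 20%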;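 note: 0% = compound-free wells with enzyme and 100% = wells lacking proteasome; stock transfer was 100 nL into about 20 µL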
#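 Material: human UCH37 enzyme supplied as purified proteasome complex. Measure: % inhibition of Ub-AMC cleavage fluorescence. Medium: pH 7.4 Tris-HCl (50 mM) with ovalbumin, ATP-MgCl2, DTT. Times: 30 min preincubation with enzyme, 25 min cleavage at room temperature. Detection: AMC fluorescence intensity at 355/460 nm.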
# HNF4A DNA FP – change in binding of human HNF4 alpha to DNA. P41235. hit rate 0.3% among 360,000. HNF4a-FITC DNA binding, fluorescence polarization, 1 h. activity change, % at 10 µM; in the data active = activity change above about 30%, passing the limit was not always enough;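 note: controls were the assay level and a saturating level of protein; the project sought stronger binding though the title names inhibitors; some compounds called inactive have numbers as strong as hits; positive values seem to mean higher polarization but the record does not say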
# Target sequence (P41235 whole entry, looked up): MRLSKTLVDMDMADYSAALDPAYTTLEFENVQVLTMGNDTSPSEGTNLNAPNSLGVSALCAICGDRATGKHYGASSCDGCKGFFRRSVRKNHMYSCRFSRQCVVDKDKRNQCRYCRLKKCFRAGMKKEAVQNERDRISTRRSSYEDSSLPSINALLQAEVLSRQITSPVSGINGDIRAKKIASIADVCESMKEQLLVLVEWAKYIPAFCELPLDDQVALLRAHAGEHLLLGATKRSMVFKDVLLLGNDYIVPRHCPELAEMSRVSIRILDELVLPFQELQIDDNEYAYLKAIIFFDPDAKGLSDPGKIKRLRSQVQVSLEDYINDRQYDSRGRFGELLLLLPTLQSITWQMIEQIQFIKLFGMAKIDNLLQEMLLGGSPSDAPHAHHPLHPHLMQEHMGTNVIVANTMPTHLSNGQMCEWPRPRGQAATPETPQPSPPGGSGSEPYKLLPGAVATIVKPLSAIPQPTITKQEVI
# B2AR ag – human beta-2 adrenergic receptor agonism by FAP. P07550. Am2.2-beta2AR cells, FAP receptor internalization, flow cytometry; reference of the scale not given here. response, % (concentration not given with the values). hit rate 0.43% among 340,000. AID 504454;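 active = response above a set limit, near 3 SD of response in nonfluorescent compounds, cut at about 42% in these data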;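 note: stock transfer was 100 nL into about 11 µL; a reference agonist was the positive control; negative values mostly stem from fluorescent compounds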
# Target sequence (P07550 whole entry, looked up): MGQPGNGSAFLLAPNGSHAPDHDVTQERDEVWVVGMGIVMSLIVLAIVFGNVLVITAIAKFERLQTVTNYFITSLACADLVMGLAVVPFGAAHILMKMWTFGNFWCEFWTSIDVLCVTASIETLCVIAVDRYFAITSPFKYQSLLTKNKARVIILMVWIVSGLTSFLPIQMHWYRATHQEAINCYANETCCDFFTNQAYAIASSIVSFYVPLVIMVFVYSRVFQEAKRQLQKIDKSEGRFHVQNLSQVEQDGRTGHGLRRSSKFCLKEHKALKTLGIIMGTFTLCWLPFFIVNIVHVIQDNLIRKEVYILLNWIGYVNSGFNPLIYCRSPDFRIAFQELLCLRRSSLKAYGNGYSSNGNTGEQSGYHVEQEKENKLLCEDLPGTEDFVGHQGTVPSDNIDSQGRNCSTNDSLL
# FGF22 binding – shifts melting point of recombinant human FGF22. Q9HCT0. recombinant FGF22 thermal shift, SYPRO orange fluorescence; percent of sucrose octasulfate shift, DMSO zero. calls only at 9.99 µM. hit rate 1.5% among 340,000;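 active = melting point raised past a set limit in the mean and every replicate; three in four hits are not shown here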
# rRNA inh HTS – inhibitors of bacterial rRNA selective over humanized ribosomes; AID 720706; GFP signal change (wild-type ribosome), % (test concentration not listed); hit rate 1.6% among 350,000; E. coli WT GFP vs humanized-ribosome RFP mutants, fluorescence, 24 h; active compounds read low; DMSO median 0, no signal -100;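 active = significant combined selectivity score with lowered wild-type GFP, culture density cut under 30%, mutant RFP and density less affected; inactive = any of these conditions unmet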; note: one replicate is shown; some compounds called inactive have numbers as strong as hits
# E coli growth – E. coli growth inhibition | OD600 absorbance (concentration not given with the values) | Escherichia coli growth, OD600, 23 h; active compounds read low | hit rate 0.21% among 330,000;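 active = OD600 absorbance below the run mean of sample wells minus 3.6 SD, in any replicate, cut at about 0.56 in these data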;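 note: stock transfer was 300 nL into about 60 µL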
# rRNA inh HTS OD600 – also measured in rRNA inh HTS; calls as there; OD600 change, %; measured here: OD600 growth;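 optical density of the mix in the first replicate; 0 = DMSO median and -100 = no signal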
# rRNA inh HTS RFP – further read-out of rRNA inh HTS, marked with its call; RFP signal change, %; measured here: RFP humanized mutant strains;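 first replicate; 0 = DMSO median and -100 = no signal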
# Starred values were filed as active, the others as inactive; i = inactive; x = no result given. These rows are one share of the data; the hit share may differ from the screen's.
SMILES,ALR H2O2 inh,UCH37 inh,HNF4A DNA FP,B2AR ag,FGF22 binding,rRNA inh HTS,rRNA inh HTS OD600,rRNA inh HTS RFP,E coli growth
COC(=O)c1cn(C(=O)c2ccc(OC)cc2)c2ccccc12,-3,1.9,-0.7,3,i,-26*,-14*,-4.3*,0.65
COC(=O)C1=C(C)NC(=O)NC1c1cc(Cl)ccc1OC (stereo unspecified),x,4.3,0.6,0,x,x,x,x,0.71
Cc1ccc(NC(=O)CN2C(=O)NC3(CCCCCCC3)C2=O)cc1C,-8,4.8,-0.9,1,i,-15,-30,-0.1,0.71
O=C(NCC1CCCO1)C(=O)N/N=C/c1ccc(OCc2ccccc2Cl)cc1 (stereo unspecified),3,x,-3.3,10,i,6,8,-0.4,x
COCCn1c(-c2ccccc2Cl)nc2c(c(=O)c3ccccc3n2C)c1=O,x,-6.7,0.7,-23,i,19,8,-2.0,0.68
Cc1cccc(CC2CC(=O)N(c3ncccn3)C2=O)c1 (stereo unspecified),-6,1.0,-0.5,5,x,x,x,x,0.68
Cc1ccc(Cn2cccc2/C=N/NC(=S)Nc2ccc(C)cc2)cc1,-2,x,-4.3,-1,x,-8,-12,0.1,x
O=C(Nc1ccc(F)cc1)c1sccc1SCc1cccc(C(F)(F)F)c1,-14,3.4,0.5,-7,x,x,x,x,0.72
Cc1cc(NS(=O)(=O)c2ccc(Nc3nc(-c4ccc(O)cc4)cs3)cc2)no1,100*,4.0,-3.7,7,x,x,x,x,0.65
CC1(C(=O)Nc2ccccc2)CCN1C(=O)CCc1ccc(Cl)cc1Cl (stereo unspecified),x,x,3.4,x,i,-21,-35,-7.2,x
c1cnc2ccc(C(c3nnnn3C3CCCC3)N3CCN(c4nc5ccccc5s4)CC3)cc2c1 (stereo unspecified),-12,2.4,-0.5,5,x,x,x,x,0.73
CCOC(=O)C(C(=O)OCC)C(C)(C)/C(C)=N\Nc1ccc([N+](=O)[O-])cc1[N+](=O)[O-],-7,x,0.2,0,x,x,x,x,x
COc1ccc(NC(=O)CN2C(=O)C(C)SC(C)C2=O)cc1 (stereo unspecified),-14,4.4,1.3,1,i,13,5,3.2,0.71
CN(C)CCCNC(=O)/C=C/c1ccc(OCc2c(F)cccc2Cl)cc1,-2,2.3,-0.8,24,i,-46*,-31*,-4.5*,0.62
O=C(CCCN1C(=O)/C(=C/c2ccc(F)cc2)SC1=S)NCCCn1ccnc1,-2,11,1.9,1,i,-1,0,7.1,0.65
COc1ccc(CC(=O)NNC(=O)c2ccc(NC(C)=O)cc2)cc1,3,-0.8,0.7,2,i,13,8,-0.7,0.68
CCc1ccccc1NC(=O)C1CCN(S(=O)(=O)c2ccc3c(c2)N(C(C)=O)CCO3)CC1,1,1.5,-3.9,2,i,11,11,0.6,0.66
COCCNC(=O)c1onc(CSc2cccc(C)c2)c1C(=O)O,-7,1.7,0.9,-7,i,4,2,6.2,0.7
CCOC(=O)Cn1c(-c2ccc(Cl)nc2)nc2ccccc21,-49,-1.0,2.0,-6,x,x,x,x,0.74
Cc1ccc(CNC(=O)COC(=O)c2ccc(Br)o2)cc1,-2,2.7,1.2,-5,i,0,4,-1.1,0.7
O=C(Nc1cnn(Cc2ccccc2)c1)c1nc2ncccn2n1,1,-0.1,0.5,5,x,x,x,x,0.71
COc1ccc2cc(C#N)c(SCC(=O)NNC(=O)Cc3ccccc3)nc2c1,0,-81,4.6,0,x,x,x,x,0.66
CC1(C)Nc2ccccc2C(=O)N1NS(=O)(=O)c1ccccc1,2,-162,-2.0,-2,i,8,1,-1.9,0.73
CCOc1ccccc1NC(=O)CCCN1C(=S)NC(C)(C)CC1C (stereo unspecified),14,2.9,-0.9,-6,x,x,x,x,0.67
O=C(CSc1n[nH]c(-c2cccs2)n1)N1CCN(S(=O)(=O)c2ccccc2)CC1,-5,-2.0,-2.0,8,x,x,x,x,0.7
# The listing continues:
SMILES,ALR H2O2 inh,UCH37 inh,HNF4A DNA FP,B2AR ag,FGF22 binding,rRNA inh HTS,rRNA inh HTS OD600,rRNA inh HTS RFP,E coli growth
COc1cccc(/C=C(/C(=O)OCC(=O)NC2CCCCCCC2)c2ccccc2)c1,1,-0.3,-1.6,5,i,1,1,0.7,0.7
COc1ccc(NC(=O)CN(C)CC(=O)NC2CCC(C)CC2)cc1 (stereo unspecified),-7,3.7,1.4,-2,i,7,4,0.5,0.73
CCOC(=O)c1sc(NC(=O)CSc2nnnn2-c2ccc(C)cc2C)nc1C,x,0.1,0.7,-1,x,x,x,x,0.69
O=C1NC[C@@H](CCCCN2C[C@H](Cc3ccccc3)N(CC3CCCCC3)C(=O)C2=O)N(CC2CCCCC2)C1=O,x,x,-2.8,x,i,-17,-32,12,x
O=c1cc(CSc2ccccc2)[nH]c2ccccc12,-2,1.9,2.8,-5,i,5,-5,-0.5,0.6
CCC(=O)Nc1ccc(Br)c(Cl)c1,-3,1.7,-0.8,4,x,x,x,x,0.65
Cc1ccccc1CSc1nnc(-c2cccs2)n1Cc1ccco1,1,1.7,3.0,-2,x,x,x,x,0.68
NS(=O)(=O)c1ccc(N=Nc2c(O)[nH]c3ccc(Br)cc23)cc1,-3,4.1,-3.5,10,i,-12,-4,0.4,0.71
Cc1cccc(-n2cnc3sc(C)c(C)c3c2=O)c1,-3,0.2,8.3,0,i,1,7,-0.7,0.69
Clc1ccc(N/N=C/c2cccnc2)cc1,99*,x,-5.4,5,x,x,x,x,x
O=C(COc1ccccc1Cl)NCCCNC(=O)c1ccco1,-2,3.5,1.9,-3,i,-3,-7,1.2,0.64
CCOCC(=O)N1CCC(Cc2ccccc2)CC1,-13,2.4,2.5,0,i,4,1,2.4,0.71
CCc1nnc(NC(=O)CSc2nnc(-c3cc4ccccc4cc3O)n2CC)s1,17,-2.2,0.7,6,x,x,x,x,0.73
CC1Oc2ccccc2N(CC(=O)Nc2ccccc2F)C1=O (stereo unspecified),x,-1.7,-0.7,-1,i,1,7,5.7,0.68
COc1cc(OC)cc(C(=O)NCc2ccc3[nH]c(C)cc3c2)c1,-4,3.6,1.8,-5,i,7,13,12,0.68
O=C(NCc1ccccc1)c1cc(C2CCCN(C(=O)c3ccccc3)C2)on1 (stereo unspecified),x,x,-0.8,x,i,2,-6,0.7,x
O=C(CCC1CCCN(C(=O)c2cccnc2)C1)NCc1ccccc1F (stereo unspecified),-4,4.9,4.7,5,i,3,2,-4.0,0.73
CCn1c(C(=O)N2CCc3ccccc3C2)cc2sccc21,-6,1.1,8.2,5,i,-20,-30,-1.2,0.73
CCCNC(=O)NC(=O)COC(=O)CC(NC(N)=O)c1ccc(Cl)cc1 (stereo unspecified),-18,2.9,1.1,1,i,2,11,2.8,0.71
COc1cc(-c2nc(N)n[nH]2)cc(OC)c1OC,-8,2.5,-0.5,1,x,x,x,x,0.65
C=CCSc1nc2c(C(=O)OCC)nnn2c2ccccc12,-3,-11,2.0,10,i,-6,-10,-1.3,0.69
CCNC(=O)CC1C(=O)N(c2ccccc2)C(=O)N1CCc1ccc(OC)c(OC)c1 (stereo unspecified),-1,3.9,1.4,-4,x,x,x,x,0.71
CC1CCCC(NC(=O)COC(=O)Cc2cn3ccsc3n2)C1C (stereo unspecified),x,x,3.4,10,x,5,11,13,x
CC(c1ccc2ccccc2c1)c1ccccc1C(=O)O (stereo unspecified),x,x,0.9,x,i,-3,-19,-0.9,x
O=C(NC1CCCC1)C(c1ccsc1)N(C(=O)Cc1cccs1)c1ccccc1 (stereo unspecified),-6,2.4,-3.9,12,i,11,7,5.9,0.69
# New compounds follow.
SMILES,ALR H2O2 inh,UCH37 inh,HNF4A DNA FP,B2AR ag,FGF22 binding,rRNA inh HTS,rRNA inh HTS OD600,rRNA inh HTS RFP,E coli growth
Cc1ccc(N2CCN(C(=S)c3ccc(-c4ccccc4[N+](=O)[O-])o3)CC2)cc1,-13,4.3,-1.5,0,i,-1,-1,6.3,0.74
Cc1cnc(C(=O)Nc2ccc(N3CCOCC3)cc2)cn1,-6,3.1,-4.2,3,x,x,x,x,0.71
COc1nc(C)ccc1-c1noc(-c2cccnc2)n1,x,1.0,-1.7,-3,i,-1,-8,-1.6,0.64
COc1ccc(NC(=O)c2cccc(Cl)c2)c[n+]1[O-],-12,5.4,-2.6,-1,i,5,12,1.0,0.66
CC1(C)CC(O)C(CCC(O)c2ccccc2)C(C)(C)N1 (stereo unspecified),-4,-0.8,-2.6,-2,x,x,x,x,0.69
CCCNS(=O)(=O)c1ccc2c(c1)CCCN2C(C)=O,1,2.8,1.9,-2,x,x,x,x,0.73
C=CCOn1c(=O)c(=O)n(OCc2ccccc2)c2ccccc21,-6,2.1,0.4,-4,x,x,x,x,0.71
C=CCOC(=O)COc1ccc2c(C)c(CC)c(=O)oc2c1,-9,-58,-0.6,2,x,x,x,x,0.66
COC(=O)c1cccc(COC(=O)CNC(=O)c2ccco2)c1,-1,0.6,5.2,4,x,x,x,x,0.69
CCn1c(Cc2ccc(OC)cc2)nnc1SCc1nc2ccccc2c(=O)[nH]1,-5,4.4,3.8,-1,x,-3,-6,-3.5,0.66
CCCCN1CC(=O)N2[C@H](c3ccc(OC)cc3)[C@@H]3C(=O)N(CC)C(=O)[C@@H]3[C@]2(C)C1=O,x,0.4,4.3,2,x,x,x,x,x
Cc1cccc(Nc2ccccc2C(=O)NCc2ccco2)c1C,99*,2.0,-5.3,-2,x,x,x,x,0.68
CC(C)Nc1nc2ccccc2c(=O)[nH]1,-4,-12,-2.8,5,i,5,12,3.8,0.68
Cc1cccc(OCC(=O)Nc2ccc3c(c2)nc(CCN2CCN(c4ccccn4)CC2)n3C)c1,-7,1.4,2.9,17,i,-7,-23,5.5,0.64
CCCN1CCN(CCCNC(=O)c2cc3c(=O)[nH]c4ccc(C)cc4c3s2)CC1,0,-243,1.6,-17,i,-13,-14,-11,0.74
CCOc1ccc(S(=O)(=O)NCCc2ccccn2)cc1,-4,-0.4,-1.6,-2,i,-3,-1,0.5,0.67
COC(=O)c1c(C)[nH]c(C)c1-c1ccccc1Cl,0,1.3,-0.9,7,x,x,x,x,0.72
OC(COc1ccccc1)CN1CCC(Cc2ccccc2)CC1 (stereo unspecified),-15,1.3,0.2,2,i,-8,-13,-0.1,0.61
CCOC(=O)c1ccc(NC(=O)CCOc2ccc(C)cc2)cc1,-7,1.0,4.5,-7,x,x,x,x,0.75
CCOc1ccc(CCNC(=O)CN2C(=O)NC(CCSC)C2=O)cc1OCC (stereo unspecified),-11,1.0,-0.4,-79,i,-1,1,1.4,0.69
CCc1ccc(NC(=S)NC2CC3CCC(C2)N3Cc2ccco2)cc1 (stereo unspecified),21,2.2,0.1,8,x,x,x,x,0.69
CC(=O)c1nnn(-c2nc(N)nc(N(c3ccccc3)c3ccccc3)n2)c1C,-6,3.3,1.2,-10,x,x,x,x,0.69
CCOC(=O)C1=C(C)Nc2nc3ccccc3n2C1c1ccccc1 (stereo unspecified),-5,-54,-1.9,17,x,x,x,x,0.73

# Fetched one by one from above (5):
SMILES,ALR H2O2 inh,UCH37 inh,HNF4A DNA FP,B2AR ag,FGF22 binding,rRNA inh HTS,rRNA inh HTS OD600,rRNA inh HTS RFP,E coli growth
CCOC(=O)c1ccc(NC(=O)CCOc2ccc(C)cc2)cc1,-7,1.0,4.5,-7,x,x,x,x,0.75
CCOc1ccc(S(=O)(=O)NCCc2ccccn2)cc1,-4,-0.4,-1.6,-2,i,-3,-1,0.5,0.67
CCCN1CCN(CCCNC(=O)c2cc3c(=O)[nH]c4ccc(C)cc4c3s2)CC1,0,-243,1.6,-17,i,-13,-14,-11,0.74
Cc1cccc(Nc2ccccc2C(=O)NCc2ccco2)c1C,99*,2.0,-5.3,-2,x,x,x,x,0.68
COc1ccc(NC(=O)c2cccc(Cl)c2)c[n+]1[O-],-12,5.4,-2.6,-1,i,5,12,1.0,0.66
